Lassa entry inh: inhibitors of Lassa virus binding or cell entry; Potency, µM (top dose mostly 37.9 µM), for the others: top-dose activity change, negative = inhibition, actives largely listed as inhibitors; AID 540256; Lassa virus pseudotype entry inhibition, cell reporter; control for the full effect not named in the record; 300,000 tested, 1.2% active; active means well fitted inhibition curve with a large enough effect; inconclusive means small, poorly fitted or top-dose-only effect, or effect the other way; inactive means flat fitted curve, though single readings scatter; tested in HEK293 cells; also: % is scaled to controls: 0 for no effect and ±100 for the full control effect; nearly all actives have a fitted effect of over 50% in size; luciferase read-out
NS1 inh: blocks influenza NS1 protein function; S. cerevisiae slowed by influenza A NS1, growth recovery by OD600; Potency, µM (top dose mostly 46.1 µM), inactives show top-dose activity, positive = more growth; 270,000 tested, 0.4% active; active means well fitted rising curve with a large enough effect; inconclusive means small, poorly fitted or top-dose-only effect; inactive means no such curve, though single readings can be large or run the other way; also: nearly all actives have a fitted effect of over 50% in size
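S. cerevisiae expressing influenza A NS1, grown in glucose, washed, then diluted 1:100 into pH 6.0 -URA galactose medium with 23 nl compound. Growth recovery read as OD600; NS1-free strain serves as control.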
SARS PLpro yeast: blocks SARS-CoV papain-like protease in a yeast assay | S. cerevisiae expressing SARS-CoV PLpro, growth rescue; control for the full effect not named in the record | Potency, µM (highest dose often 32.9 µM), inactives show at the highest dose activity, positive = growth rescue | 330,000 tested, 0.19% active | AID 485353; active means well fitted rising curve with a large enough effect; inconclusive means small, poorly fitted or top-dose-only effect; inactive means no such curve, though single readings can be large or run the other way; also: 0% is about no effect; nearly all actives have a fitted effect of over 55% in size; growth read by luminescence after 48 h
Cruzain inh Det: cruzain (T. cruzi) inhibition with detergent; P25779; purified cruzain, Z-FR-AMC fluorescence, 0.01% Triton; Potency, µM, without a hit: max response, negative = inhibition, hits mostly inhibitors; 200,000 tested, 0.43% active;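 also: plate controls were neutral wells for no effect and buffer without enzyme for full effect; nearly all actives have a fitted effect of over 40% in size; top concentration of the series not given in the record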
Target sequence (P25779 123-467 limits assumed): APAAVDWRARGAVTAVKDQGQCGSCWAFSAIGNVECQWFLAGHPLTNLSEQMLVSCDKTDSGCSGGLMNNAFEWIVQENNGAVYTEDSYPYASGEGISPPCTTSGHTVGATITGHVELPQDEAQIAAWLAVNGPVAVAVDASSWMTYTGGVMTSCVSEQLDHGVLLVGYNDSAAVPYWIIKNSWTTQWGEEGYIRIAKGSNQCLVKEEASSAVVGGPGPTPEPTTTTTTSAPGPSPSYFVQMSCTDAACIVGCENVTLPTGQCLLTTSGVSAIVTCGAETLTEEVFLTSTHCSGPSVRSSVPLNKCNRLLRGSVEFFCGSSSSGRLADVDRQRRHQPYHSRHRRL
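Detergent-containing run (0.01% Triton X-100) in acetate buffer pH 5.5 with 5 mM DTT: enzyme at 1.5 nM final, 15 min compound preincubation at room temperature, then 2 uM Z-FR-AMC substrate. Activity taken as 60 s fluorescence increase at 360/450 nm.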
Cruzain noTriton: inhibitors of Trypanosoma cruzi cruzain without detergent. 200,000 tested, 2.3% active. purified cruzain, Z-FR-AMC fluorescence, no detergent. P25779. AID 1476. Potency, µM, for the others: max response, negative = inhibition, usual class: inhibitors;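 also: plate controls were enzyme without inhibitor for no effect and buffer without enzyme for full effect; nearly all actives have a fitted effect of over 40% in size; top concentration of the series not given in the record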
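Detergent-free condition (0.00005% Triton X-100) in acetate buffer pH 5.5 with DTT. 1.5 nM enzyme and compound were pre-mixed 15 min, then 2 uM Z-FR-AMC substrate added; reaction progress from fluorescence change between first and third reads (60 s).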
2A StopGo: lowers the luciferase signal of an FMDV 2A StopGo reporter. human cells with a luciferase reporter of 2A StopGo recoding; control for the full effect not named in the record. Potency, µM (top dose mostly 57.9 µM), for the others: at the highest dose signal change, negative = less light. 410,000 tested, 1.2% active. AID 1159524; active = well fitted falling curve with a large enough effect; inconclusive = small, poorly fitted or top-dose-only effect; inactive = no such curve, though single readings can be large or run the other way; tested in HEK293T cells; also: % is scaled to controls: 0 for no effect and ±100 for the full control effect; nearly all actives have a fitted effect of over 45% in size; luciferase light after 4 h
Marburg entry inh: blocks Marburg virus binding to or entry into cells; Marburg virus pseudotyped entry inhibition, cell reporter; control for the full effect not named in the record; about a third of the inactives were read at about 46 µM; Potency, µM (highest dose often 37.8 µM), inactives show at the highest dose activity change, negative = inhibition, hits mostly inhibitors; 300,000 tested, 1.8% active; active = well fitted inhibition curve with a large enough effect; inconclusive = small, poorly fitted or top-dose-only effect, or effect the other way; inactive = flat fitted curve, though single readings scatter; tested in HEK293 cells; about a fifth of its hits are not listed in these tables; also: % is scaled to controls: 0 for no effect and ±100 for the full control effect; luciferase read-out
RE007 growth inh: less growth of the S. pombe RE007 Vpr strain | S. pombe RE007 Vpr strain, BacTiter-Glo ATP luminescence, 24 h; control for the full effect not named in the record | Potency, µM (top dose mostly 92.2 µM), without a hit: top-dose activity change, negative = less growth | 360,000 tested, 0.21% active | AID 651644; active = well fitted falling curve with a large enough effect; inconclusive = small, poorly fitted or top-dose-only effect; inactive = no such curve, though single readings can be large or run the other way;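 also: % is scaled to controls: 0 for no effect and ±100 for the full control effect; nearly all actives have a fitted effect of over 50% in size; the assay follows cell death caused by Vpr and the record does not say whether a fall means rescue or toxicity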
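Fission yeast strain RE007, carrying one chromosomally integrated HIV-1 vpr copy, was seeded at OD 0.01 in PMG+AL medium with 23 nL pinned compound. After 24 h at 30 °C and 99% humidity, viability was read by BacTiter-Glo luminescence.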
Active calls of the source: *; ? = inconclusive; . = no result given; & = joins results of further samples; [ ] = another dose, or the depositor's remark. Unless noted, calls follow the shape of the dose curve; as a rule, active = well fitted curve in the direction sought with a large enough effect; inconclusive = small, poorly fitted or top-dose-only effect, or another doubt; inactive = no such curve, though single readings can be large; an effect the other way counts as inactive or inconclusive. Potency is read from the fitted curve at half-maximal effect. No enrichment for hits; any-hit rate near 4.6%.

SMILES | Lassa entry inh | NS1 inh | SARS PLpro yeast | Cruzain inh Det | Cruzain noTriton | 2A StopGo | Marburg entry inh | RE007 growth inh
O/N=C1/C(=C\c2ccccc2)N2CCC1CC2 | 0.8% | -12.9% | 6.1% | -1.8% | -6.0% | -14.3% | -6.9% | -4.1%
O=c1[nH]c(=S)[nH]c(O)c1/C=C1\C=Nc2ccccc21 | ? | . | . | . | . | -16.2% | -5.3% | -8.5%
CCCc1nc2c(c(=O)c3ccccc3n2C)c(=O)n1-c1ccc(F)cc1 | 4.0% | -2.1% | -0.2% | -4.0% | -9.0% | ? | -4.6% | 6.4%
Cc1ccccc1NC(=O)C1CCN(c2cnccn2)CC1 | -2.2% | -6.8% | 14.6% | -4.7% | 3.8% | -18.8% | 2.9% | 4.3%
CCOC(=O)CSc1nc(=O)n2ccc(C)cc2n1 | ? | 7.5% | 1.3% | . | . | -9.6% | 7.2% | 17.2%
CSCCC(NC(=O)c1ccccc1Br)C(=O)Nc1ccc(C)cc1 (stereo not given) | -1.2% | -0.5% | 18.7% | -2.3% | ? | -1.5% | 15.2% | .
Cc1cc(OCC(=O)NCC(O)c2ccccc2)c2c3c(c(=O)oc2c1)CCCC3 (stereo not given) | . | 6.4% | 4.4% | . | . | -18.9% | . | 2.4%
C/C(=N\Nc1nc2ccccc2nc1C)c1ccccc1O | -14.8% | -5.7% | -2.0% | . | . | 2.9% | 3.7%[46.1 µM] | 1.4%
O=C(CN1C(=O)S/C(=C\c2ccccc2)C1=O)NCCCn1ccnc1 | . | -3.1% | 2.1% | . | . | 1.0% | . | 1.9%
O=C1C(=O)N(CCO)C(c2ccccc2)/C1=C(\O)c1ccccc1 (stereo not given) | . | -5.1% | 4.2% | 0.2% | -10.9% | -14.7% | . | 3.6%
COc1ccc(-n2ncc(C(=O)N3CCN(Cc4ccccc4)CC3)c2C2CCN(C(=O)OC(C)(C)C)CC2)cc1 | . | . | . | -2.5% | -10.8% | -13.2% | . | .
Cc1c(CCC(=O)O)c(=O)oc2cc(OCc3cccc(F)c3)ccc12 | -0.1%[46.1 µM] | 4.9% | -2.1% | . | . | 10.0% | 6.2%[46.1 µM] | 29.6%
CCn1c(=O)cc(SCC(=O)NCc2ccc(C)cc2)c2ccccc21 | -13.8%[46.1 µM] | 1.0% | 0.5% | 1.9%&-2.9% | 21.8%&21.1% | -1.7%&-4.1% | -2.3%[46.1 µM] | 0.0%
COc1ccc(/C=c2/sc3n(c2=O)C(c2ccccc2OC)C2=C(N=3)c3ccccc3CC2)cc1O (stereo not given) | -25.1% | 25.4% | 5.7% | 0.7% | -8.6% | -11.5% | 23.1µM* | 2.5%
O=C(Cc1ccccc1)Nc1ccc2c(c1)C(=O)N(CC1CCCO1)C2=O (stereo not given) | . | -1.1% | 3.6% | . | . | 17.6% | . | -1.6%
COc1cccc(NC(CNS(=O)(=O)c2ccc(C)cc2)c2ccccc2)c1 (stereo not given) | -8.2%[46.1 µM] | . | . | -9.7% | ? | -10.6% | -25.9%[46.1 µM] | .
Cc1ccc(NC(=S)N(CCCN2CCOCC2)Cc2ccccn2)cc1 | 5.1% | 8.9% | -9.9% | -1.5% | -9.3% | 3.8% | 4.3% | 1.6%
COc1cccc(CNC(=O)Cn2c(=O)nc(-c3ccccc3F)c3cc(Cl)ccc32)c1 | ? | . | . | -2.4% | 3.9% | -8.4% | . | .
Cc1ccc(S(=O)(=O)CC(C)(O)C(=O)Nc2cccc(C(F)(F)F)c2)cc1 (stereo not given) | 10.4% | -6.7% | -4.4% | 0.6% | 11.7% | 13.3% | -0.8% | 4.2%
Cc1nc(CCN2C(=O)c3ccccc3C2=O)cs1 | -9.3% | -2.4% | 14.4% | 3.7% | 5.0% | 0.0% | -16.4% | 26.3%
O=C(Nc1cccc(F)c1)[C@H](CSCc1ccccc1)N1Cc2ccccc2C1=O | -0.1%[46.1 µM] | . | . | -1.0% | 5.0% | 9.7% | ? | .
C/C(=N\NC(=O)c1sccc1C)c1cccnc1 | . | -0.8% | -0.8% | . | . | 56.8%[activator] | . | 0.9%
CC(C)CCNC(=O)c1cc(-c2cccnc2)nc2ccc(S(=O)(=O)N3CCC(C)CC3)cc12 | 15.0%[46.1 µM] | . | . | 0.8% | -5.0% | 6.4% | . | .
Cc1ccccc1-n1cc[nH]c1=S | -5.5% | . | -0.8% | . | . | -7.7% | -1.3%[46.1 µM] | 2.3%
Oc1c(C(c2ccco2)N2CCC3(CC2)OCCO3)sc2ncnn12 (stereo not given) | . | -4.2% | 1.8% | -2.7% | 1.4% | -19.9% | . | -4.8%
NC(=O)CCC(=O)N1CCCC(C(=O)c2ccc3c4c(cccc24)CC3)C1 (stereo not given) | . | 1.7% | 0.6% | . | . | -3.2% | . | -7.8%
Cc1cccc(OCCCC(=O)NCCc2ccccc2)c1 | -41.7% | -8.6% | -13.1% | -0.2% | 0.1% | 16.2% | ? | 2.1%
O=C(Nc1nc(-c2ccc3ccccc3c2)cs1)C1CCN(S(=O)(=O)c2cccs2)CC1 | ? | 21.1% | -12.0% | -2.2% | 3.16µM* | ? | -1.8% | 4.2%
CN1C(=O)C(c2ccc([N+](=O)[O-])cc2[N+](=O)[O-])C(=O)N(C)C1=O | . | 2.9% | -0.5% | . | . | 1.5% | . | -23.2%
O=C(O)c1[nH]c2ccccc2c1C(c1c(F)cccc1Cl)c1c(C(=O)O)[nH]c2ccccc12 | . | ? | 1.2% | . | . | -4.3% | . | 1.1%
CC(C)(C)NC(=O)COC(=O)c1ccc(O)cc1 | 8.6% | 8.0% | 1.8% | 0.3% | 9.7% | 19.0% | ? | -1.6%
Cc1ccccc1CC(=O)N1CCCC1 | . | ? | -0.9% | . | . | -14.3% | . | 2.0%
COc1ccc(NC(=O)c2cnc(SC)nc2C)c(OC)c1 | -19.7%[46.1 µM] | 4.6% | 0.3% | . | . | 8.1% | 5.1%[46.1 µM] | 7.4%
Cc1ccnc(NC(=O)c2ccc(Cl)c(S(=O)(=O)N3CCCC3)c2)c1 | 15.7% | . | -15.5% | . | . | 0.9% | -12.1%[46.1 µM] | 1.6%
CCC(=O)N1CCN(c2ccccc2NC(=O)COc2cccc(C)c2)CC1 | -16.0% | -53.8% | 0.3% | -1.6% | -0.2% | -17.6% | ? | -6.6%
COCCNS(=O)(=O)c1cc2[nH]c3c(c2cc1C)C(=O)CC(C)(C)C3 | 0.7%[46.1 µM] | -1.3% | 0.8% | . | . | 0.2% | ? | -5.5%
COc1ccccc1NS(=O)(=O)c1cc(C(=O)N2CCCC2)ccc1F | 9.6% | . | -0.6% | . | . | 36.5%[activator] | -9.7% | 1.4%
CC1CN(C(=O)CN2C(=O)NC(C)(c3ccccc3)C2=O)CC(C)O1 (stereo not given) | -4.3% | -3.1% | 2.2% | 2.6% | -8.6% | 3.2% | 15.4% | 0.0%
CN1CCN(S(=O)(=O)c2ccc(NC(=S)NC(=O)C3CCCCC3)cc2)CC1 | -26.4%[46.1 µM] | . | 0.3% | . | . | 23.2% | 7.4%[46.1 µM] | 2.2%
CSCC[C@H](NC(=O)c1cccc(S(=O)(=O)N2CCN(C)CC2)c1)c1nc2ccccc2[nH]1 | -3.7%[46.1 µM] | . | -12.9% | . | . | 24.5% | ? | 0.8%
CCc1cc(C(=O)Nc2cc(S(=O)(=O)N(CC)CC)ccc2N2CCOCC2)sc1C | ? | . | -4.4% | . | . | 8.3% | ? | -1.8%
Clc1ccc(-c2ccc(C=Nc3ccc(N4CCOCC4)cc3)o2)c(Cl)c1 | -12.7%[46.1 µM] | . | -3.1% | . | . | 5.6% | -0.1%[46.1 µM] | -4.4%
COc1ccc(-c2c(C)nn3c(N4CCN(c5ccccc5F)CC4)cc(C)nc23)cc1OC | -15.9%[46.1 µM] | . | . | -0.4% | -7.6% | -15.2% | -12.9%[46.1 µM] | .
Cn1c(C2CCCCC2)nc2c1c(=O)[nH]c(=O)n2Cc1ccccc1 | . | 0.4% | -0.3% | . | . | 7.9% | . | 7.8%
Cc1cc(C)c2nc(NC(=O)c3cccc(S(=O)(=O)N4CCc5ccccc54)c3)sc2c1 | 22.6% | 17.8µM* | 1.9% | 0.3% | 3.98µM* | -3.9% | ? | -0.6%
Cc1ccc(-n2ncc3c(NNC(=O)c4ccco4)ncnc32)cc1Cl | . | 4.8% | -2.4% | . | . | -5.7% | . | -2.1%
CCc1ccc(CNn2cnnc2SCC(=O)NC(C)(C)C)cc1 | -5.5% | -10.2% | 7.7% | 0.1% | -5.6% | -18.4% | 3.2% | 16.6%
CCN(CC)c1cc(C(F)(F)F)nc(-c2ccccn2)n1 | -3.0% | -18.8% | 2.9% | 14.5% | -3.0% | ? | 2.9% | -14.7%
NC(=O)CC(NC(=O)Cc1ccc(Br)cc1)c1ccc(NCc2ccccn2)c([N+](=O)[O-])c1 (stereo not given) | . | -6.5% | 0.2% | . | . | -16.4% | . | -4.0%
Cc1ccc(NC(=O)Nc2sc(=S)n(C)c2C)cc1 | -7.5% | 4.0% | -13.1% | -3.8% | -28.8% | 0.0% | ? | -3.6%
CCOCc1nnc(NC(=O)CCc2ccccc2)s1 | -19.3% | -13.2% | 0.4% | 4.4% | 16.1% | 7.8% | 27.1%[46.1 µM] | 22.3%
COCCNc1nc2nonc2nc1N(C)Cc1ccc(C)cc1 | -12.8%[46.1 µM] | -2.3% | -1.9% | . | . | -12.9% | 4.7%[46.1 µM] | 3.3%
COc1ccc(C2CC(c3ccccc3)=NN2C(=O)COC(=O)c2cccc(O)c2)cc1 (stereo not given) | -20.9%[46.1 µM] | . | 0.2% | . | . | -3.8% | ? | 8.7%
Cc1cc(Cl)ccc1OCCCC(=O)NNC(=O)c1ccccc1O | -28.3% | . | 1.0% | . | . | 18.6% | ? | -2.4%
Cc1ccn2c(Nc3ccc4c(c3)OCCO4)c(-c3ccc(C)o3)nc2c1 | -5.7%[46.1 µM] | . | . | -14.7% | -8.5% | 15.0% | ? | .

Screening data: PubChem, National Center for Advancing Translational Sciences (NCATS)
